Menin MLL FP FL – displaces fluorescein MLL peptide from human menin; AID 1766; FP activity change, % at 61.4 µM; 290,000 tested, under 10 active; Fluorescence polarization, fluorescein-MLL peptide displacement from menin; inconclusive = falling polarisation curve, or a change in total fluorescence; inactive = total fluorescence flat and polarisation flat or rising; no compound was filed as active; the % refers to the polarisation; negative = inhibition;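 further: % of control where 0% means no effect; inhibitors lower the polarisation; unlabelled MLL peptide was the positive control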
ClpP mod – qHTS Assay for Activators of ClpP. actives 1.9% (n = 340,000). ATP-dependent Clp protease proteolytic subunit (Bacillus subtilis (strain 168)), P80244. AID 651965, 2013. Potency, µM (doses to about 57.5 µM), without a hit: at the top dose activity change, negative = active. purified B. subtilis ClpP, FRET peptide cleavage, 20 min; active = well fitted falling curve with a large enough effect; inconclusive = small, poorly fitted or top-dose-only effect; inactive = no such curve, though single readings can be large or run the other way; further: potency means the concentration at half of the fitted maximal effect; the source files actives as falling curves though it sought activators and does not explain the sign; nearly all actives have a fitted effect of over 65% in size; many hits overshoot -100%
Target sequence (P80244 whole entry, looked up): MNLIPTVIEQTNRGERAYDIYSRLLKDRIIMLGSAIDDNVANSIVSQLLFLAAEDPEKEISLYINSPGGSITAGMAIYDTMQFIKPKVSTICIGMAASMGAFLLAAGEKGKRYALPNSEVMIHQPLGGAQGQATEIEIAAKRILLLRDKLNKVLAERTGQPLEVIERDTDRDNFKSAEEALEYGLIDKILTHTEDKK
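FRET quenching reversal measured ClpP activation: 10 microg/mL B. subtilis ClpP at pH 8 with the FRET-FV decapeptide, read at 430 nm after 320 nm excitation. The 20-min minus 0-min signal was scaled between DMSO/no-enzyme wells and ADEP (5.8 microM final).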
CtBP-E1A blk – inhibitors of CtBP/E1A interaction | AlphaScreen GST-E1A/His-CtBP binding, 1536-well; stronger effect = lower value; control for the full effect not named in the record | activity change, % (concentration not given with the values) | actives 0.49% (n = 340,000) | AID 651724; in the data active means activity change below about -65%; inconclusive means about -30% to -65%; inactive means above about -30%; further: on the % scale 0 is the no-effect control and ±100 the full control effect
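GST-E1A and His-tagged CtBP (125 nM each as 5X stock) were preincubated with pin-transferred compound for 2 h at 37 °C in the dark, then glutathione donor and nickel acceptor beads were added for 1 h before AlphaScreen reading.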
gsp antag – gsp mutant antagonism; actives 0.4% (n = 340,000); gsp-mutant cells, cAMP HTRF, 30 min; control for the full effect not named in the record; Potency, µM (doses to about 76.9 µM), inactives show at the top dose activity change, negative = inhibition, hits mostly inhibitors; AID 624288; active = falling curve of any shape with a large fitted effect; inconclusive = falling curve, mostly with a smaller effect; inactive = flat or rising curve; cell line not stated here;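 further: intracellular cAMP measured with PDE inhibitor Ro 20-1724 present during compound exposure; potency means the concentration at half of the fitted maximal effect; on the % scale 0 is the no-effect control and ±100 the full control effect; nearly all actives have a fitted effect of over 65% in size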
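HTRF cAMP measurement after 30 min RT detection following 30 min, 37C compound treatment alongside […] (added as 300 uM solution) in G418-selected cells seeded at 2000/well and grown 16–24 h.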
gsp ag – activates gsp, the McCune-Albright syndrome mutation; gsp mutant cells, cAMP HTRF, 30 min; control for the full effect not named in the record; actives 0.13% (n = 340,000); AID 624287; Potency, µM (top dose mostly 76.9 µM), for the others: at the highest dose activation (cAMP increase), most hits filed as activators; active = well fitted activation curve with a large enough effect; inconclusive = small, poorly fitted or top-dose-only effect, or another doubt; inactive = no such curve, though single readings can be large or run the other way; cell line not stated here;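 further: phosphodiesterase inhibitor Ro 20-1724 added with compounds to block cAMP breakdown; potency means the concentration at half of the fitted maximal effect; nearly all actives have a fitted effect of over 60% in size; about a fifth of the inactives were tested at one dose only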
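Cells stably selected in G418 were plated at 2000/well, grown 16-24 hr, then given compounds in DMSO with the PDE inhibitor […] (300 uM solution added) for 30 min at 37C; cAMP was read by HTRF.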
TRPV1 potentiator – human TRPV1 potentiation | TRPV1-expressing cells, Fluo-8 calcium influx, capsaicin EC20 potentiation; host cell line not named in the record; control for the full effect not named in the record | potentiation, % at 8.33 µM | actives 0.02% (n = 320,000); active means potentiation above 80%; inconclusive means 30% to 80%; inactive means below 30%; further: 0% is about no effect
Target sequence (Q8NER1 whole entry, looked up): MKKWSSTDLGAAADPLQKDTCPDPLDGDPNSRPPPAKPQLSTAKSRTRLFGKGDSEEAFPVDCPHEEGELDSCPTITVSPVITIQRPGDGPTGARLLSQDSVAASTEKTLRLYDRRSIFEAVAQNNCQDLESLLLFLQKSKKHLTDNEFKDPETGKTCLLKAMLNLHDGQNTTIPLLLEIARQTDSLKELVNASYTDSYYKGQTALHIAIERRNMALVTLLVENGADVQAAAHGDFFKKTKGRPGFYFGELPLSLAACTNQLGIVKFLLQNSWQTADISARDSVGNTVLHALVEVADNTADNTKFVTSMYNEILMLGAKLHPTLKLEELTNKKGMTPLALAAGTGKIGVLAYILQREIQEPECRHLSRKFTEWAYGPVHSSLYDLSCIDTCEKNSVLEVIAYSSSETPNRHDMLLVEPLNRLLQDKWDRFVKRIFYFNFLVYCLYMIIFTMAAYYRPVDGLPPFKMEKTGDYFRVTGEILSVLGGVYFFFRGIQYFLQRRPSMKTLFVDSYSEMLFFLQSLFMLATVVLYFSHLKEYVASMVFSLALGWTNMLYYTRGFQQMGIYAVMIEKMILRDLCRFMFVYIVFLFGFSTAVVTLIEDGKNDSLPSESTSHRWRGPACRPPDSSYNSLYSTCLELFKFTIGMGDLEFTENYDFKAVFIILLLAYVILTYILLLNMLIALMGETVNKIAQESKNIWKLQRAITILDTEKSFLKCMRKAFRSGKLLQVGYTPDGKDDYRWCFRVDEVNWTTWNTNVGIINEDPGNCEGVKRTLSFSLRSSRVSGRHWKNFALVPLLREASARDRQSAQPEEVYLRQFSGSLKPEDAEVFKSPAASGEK
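Fluo-8 calcium influx in TRPV1-expressing cells, kinetic read (ex 480/em 520 nm). Compound added and read 3 min for agonist activity, followed by capsaicin at EC20 final and 2 min further read for enhancement.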
Sfp PPTase inh – Sfp phosphopantetheinyl transferase inhibition | actives 3.5% (n = 310,000) | AID 1490 | Potency, µM, for the others: max response, negative = inhibition, most hits filed as inhibitors | Biochemical Sfp PPTase activity, qHTS | Q9F4F7; active means well fitted inhibition curve with a large enough effect; inconclusive means small, poorly fitted or top-dose-only effect, or another doubt; inactive means no such curve, though single readings can be large or run the other way;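 further: the enzyme is Sfp with the accession as filed and its product quenches rhodamine fluorescence; potency means the concentration at half of the fitted maximal effect; 0% = enzyme reaction without inhibitor and -100% = no enzyme wells; top concentration of the series not given in the record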
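Reaction rates are the 30-min fluorescence difference (ex 525, em 598 nm) in wells containing 15 nM Sfp, 5 uM rhodamine-CoA and 12.5 uM BHQ-2-YbbR at pH 7.6 with 10 mM MgCl2.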
Starred values were filed as active, the others as inactive; ? = inconclusive; / = not tested or not shown; & = joins results of further samples; [ ] = remark or other dose.

1) CCOc1ccc(C2=CSC3=NCCN23)cc1[N+](=O)[O-]
2) COc1ccc(OC)c(N(CC(=O)NCCSCc2ccc(C)cc2)S(C)(=O)=O)c1
3) CC(C)OC(=O)c1cc(C(=O)c2cc(Cl)ccc2O)coc1=N
4) CCC(CC)C(=O)Nc1ccc(C)cc1O
5) COc1ccc(CC(=O)NCC2CCCN(Cc3cc(OC)cc(OC)c3)C2)cc1 (stereo not given)
6) S=C(NC12CC3CC(CC(C3)C1)C2)N1CCCC1
7) C/C(=N\NC(=O)Cc1cccn1C)c1ccc([N+](=O)[O-])cc1
8) CC(NCc1ccc(S(N)(=O)=O)cc1)C(=O)Nc1cccc(Cl)c1 (stereo not given)

Screen / compound no. | 1 | 2 | 3 | 4 | 5 | 6 | 7 | 8
Menin MLL FP FL | -16 | -1.2 | 16 | 6.0 | -0.7 | 14 | -1.7 | 0.1
ClpP mod | -0.8% | -1.5% | / | / | -1.8% | -1.7% | -1.0% | -1.9%
gsp ag | -5%[15.4 µM] | -9%[15.4 µM] | -2%[15.4 µM] | 5% | 6% | -18% | 23% | -2%
gsp antag | 19% | 1% | -12% | 0% | 1% | -16% | 0% | 13%
CtBP-E1A blk | 7 | -16 | / | 4 | -6 | 2 | / | /
Sfp PPTase inh | -10% | 1% | -2% | 5% | 4% | 19% | 4% | 28%
TRPV1 potentiator | 4 | -32 | -13 | -26 | 16 | -18 | 7 | 6

9) Cc1ccc(C(=O)Nc2ccc(C(=O)N/N=C/c3ccccn3)cc2)cc1
10) COC(=O)c1c(C)n(-c2ccccc2)c2ccc(O)cc12
11) O=C(O)C1C2CCC(O2)C1C(=O)Nc1ccc(Br)cc1F (stereo not given)
12) COCCn1c(=S)[nH]c2sc3c(c2c1=O)CCC(C)C3 (stereo not given)
13) Cc1ccc(S(=O)(=O)N2C[C@]3(O)C[C@@H]4C(=O)N(c5ccccc5)C(=O)[C@@H]4C[C@]3(OC(=O)NCC3CCCCC3)C2)cc1
14) N#Cc1ccc(Cn2ccnc2C(=O)Nc2ccccc2)cc1
15) CCOC(=O)c1cc(C(=O)OCC)c(=O)[nH]c1C
16) Cc1cccc(N2CCN(C(=O)CCC(=O)N3CC(C)Oc4ccc(C)cc43)CC2C)c1 (stereo not given)

Screen / compound no. | 9 | 10 | 11 | 12 | 13 | 14 | 15 | 16
Menin MLL FP FL | -5.7 | 7.1 | / | -1.9 | / | 7.0 | -2.9 | 4.8
ClpP mod | / | -10% | -0.2% | / | -1.7% | / | ? | -2.3%
gsp ag | -4% | -20% | -9% | -10%[15.4 µM] | 27% | 2% | 10% | -5%
gsp antag | -13% | -2% | -1% | -11% | / | -14% | 5% | ?
CtBP-E1A blk | ? | -12 | / | -13 | -15 | 5 | 5 | 0
Sfp PPTase inh | 5% | ? | / | -5% | / | 4% | ? | -5%
TRPV1 potentiator | -6 | / | / | 11 | / | 5 | 1 | -6

Given bar-delimited: entries from further up.
item | Compound | Menin MLL FP FL | ClpP mod | gsp ag | gsp antag | CtBP-E1A blk | Sfp PPTase inh | TRPV1 potentiator
15 | CCOC(=O)c1cc(C(=O)OCC)c(=O)[nH]c1C | -2.9 | ? | 10% | 5% | 5 | ? | 1
10 | COC(=O)c1c(C)n(-c2ccccc2)c2ccc(O)cc12 | 7.1 | -10% | -20% | -2% | -12 | ? | /
11 | O=C(O)C1C2CCC(O2)C1C(=O)Nc1ccc(Br)cc1F (stereo not given) | / | -0.2% | -9% | -1% | / | / | /

New compounds follow
17) Cc1ccc(-n2nnnc2SCC(=O)NC2CCS(=O)(=O)C2)c(C)c1 (stereo not given)
18) Cc1cccc(NC(=O)CCS(=O)(=O)c2ccccc2)c1
19) O=C1CCN(c2ncccc2[N+](=O)[O-])CC1
20) O=C(NCCc1ccc(C(F)(F)F)cc1)C1CCC(=O)N(CCCc2ccccc2)C1 (stereo not given)
21) O=C(/C=C/c1ccccc1)N/C(=C/c1ccccc1)C(=O)Nc1ccccc1O
22) Cc1ccc(NC(=O)CN(C)C(=O)/C=C/c2cccs2)cc1
23) COc1ccccc1NC(=S)N1CCC(NC(=O)C23CC4CC(CC(C4)C2)C3)CC1
24) Cc1nc2c3ccccc3nc(NNC(=O)CCC(=O)NCCN3CCN(c4ccccc4)CC3)n2n1

Screen / compound no. | 17 | 18 | 19 | 20 | 21 | 22 | 23 | 24
Menin MLL FP FL | / | 6.2 | -4.0 | 1.7 | 14 | 1.2 | -4.5 | 0.3
ClpP mod | / | 0.5% | / | 2.7% | -3.0% | 1.2% | -2.0% | -0.3%
gsp ag | -16%[15.4 µM] | -18% | 15%[15.4 µM] | 17% | -1% | 11% | 21% | 9%
gsp antag | 9% | 13% | / | -15% | 12% | 6% | -4% | 5%
CtBP-E1A blk | -6 | / | 0 | 2 | -10 | 2 | / | /
Sfp PPTase inh | / | 2% | 17% | 4% | 10% | 13% | 2% | 15%
TRPV1 potentiator | -9 | 3 | 4 | -3 | -13 | -3 | -2 | 0

25) CCC(Oc1ccccc1)C(=O)N(C)CC(=O)N(CC(C)C)c1c(N)n(CC(C)C)c(=O)[nH]c1=O (stereo not given)
26) Cc1cc2cc3c(cc2nc1SCC(=O)O)OCCO3
27) CC1=C/C(=C\C=C(C#N)C#N)N(C)c2ccccc21
28) COc1ccc(C)cc1NS(=O)(=O)c1ccc(NC(=O)CN(c2cc([N+](=O)[O-])ccc2C)S(C)(=O)=O)cc1
29) CCOC(=O)[C@H]1[C@H]2COc3ccc(Br)cc3[C@@H]2N2C(=O)c3cc(F)c(F)cc3NC(=O)[C@@]12C
30) CCc1c(C)c2c(C)nn(-c3ccccc3)c2[nH]c1=O
31) CC(=O)Nc1c(C)ccc(CNC(=O)COc2cc(C)ccc2C)c1C
32) CCOc1ccc(OCC)c(NC(=O)C2CCN(S(=O)(=O)c3c(C)noc3C)CC2)c1

Screen / compound no. | 25 | 26 | 27 | 28 | 29 | 30 | 31 | 32
Menin MLL FP FL | / | 1.8 | ? | / | / | 2.5 | / | 0.8
ClpP mod | -2.4% | ? | / | -2.3% | -2.7% | ? | -0.9% | -2.4%
gsp ag | 0%[15.4 µM] | ? | 18% | -14% | 14% | 23% | 9%[15.4 µM] | 3%
gsp antag | 3% | -3% | -16% | -12% | -11% | 13% | 3% | 2%
CtBP-E1A blk | -27 | -14 | -10 | 2 | -28 | -12 | 0 | -9
Sfp PPTase inh | / | 14% | -7% | -12% | / | 4% | -7% | -1%
TRPV1 potentiator | 23 | 7 | 0 | 18 | ? | 3 | -11 | 5

33) COc1ccc(C)cc1NC(C)C(=O)NC(=O)NC1CCCCC1 (stereo not given)
34) Cc1[nH]c2ccccc2c1C(=O)CN1C(=O)NC(C)(c2ccc(Cl)cc2Cl)C1=O (stereo not given)
35) CS(=O)(=O)c1ccc(NCCc2ccccn2)c([N+](=O)[O-])c1
36) COCCN(C(=O)COC(=O)/C=C/c1ccc2c(c1)OCO2)c1c(N)n(Cc2ccccc2)c(=O)[nH]c1=O
37) Cc1[nH]n(C(C)(C)C)c(=O)c1Sc1ccc(Cl)cc1
38) COc1ccc(NC(=S)NCCCN2CCCC2)cc1
39) CN(C(=O)Cn1cnc([N+](=O)[O-])n1)C1CCCCC1
40) Cc1ccc(Cc2c(-c3ccc(Br)cc3)nc3cc(C)ccn23)cc1

Screen / compound no. | 33 | 34 | 35 | 36 | 37 | 38 | 39 | 40
Menin MLL FP FL | / | 3.6 | -2.1 | / | 3.1 | 2.1 | 0.0 | /
ClpP mod | -1.0% | 2.2% | / | ? | -1.1% | / | / | -2.4%
gsp ag | -23% | -7%[15.4 µM] | 25%[15.4 µM] | 13% | -21% | -27% | -1%[15.4 µM] | ?
gsp antag | 0% | -26% | -3% | 2% | -14% | 1% | -1% | /
CtBP-E1A blk | -7 | 1 | 2 | 1 | 24 | 12 | 3 | 4
Sfp PPTase inh | / | 7% | 10% | / | 19% | 23% | 3% | /
TRPV1 potentiator | -14 | 6 | 0 | 10 | -4 | 15 | -3 | /

41) O=C(O)CN1C(=O)/C(=C/c2ccccc2Cl)Oc2ccccc21
42) Clc1ccc(C2Nc3ccccc3-n3cccc32)cc1 (stereo not given)
43) O=C(COC(=O)CCC(=O)c1ccccc1)NNC(=O)c1ccc(Cl)cc1
44) Cc1cc(C(=O)Nc2ccc(OCc3ccccc3)cc2)c(C)o1
45) CCOC(=O)c1ccc(NC(=S)Nc2cc(C)cc(C)n2)cc1
46) CCOC(=O)CN1C(=O)N[C@@H](c2ccccc2)C(C(=O)OC)=C1C
47) C=C(C)c1ccccc1NC(=O)CCN1C(=O)c2ccccc2S1(=O)=O
48) Cc1ccc(/C=C/C(=O)N2CCN(c3ccc(F)cc3)CC2)o1

Screen / compound no. | 41 | 42 | 43 | 44 | 45 | 46 | 47 | 48
Menin MLL FP FL | 3.8 | 3.6 | / | 10 | 0.8 | -1.1&0.8 | / | 7.4
ClpP mod | 3.2% | ? | -3.2% | 0.1% | / | -1.6% | / | -5.0%
gsp ag | ? | 15% | -6% | -7%[15.4 µM] | 3%[15.4 µM] | 0% | 2% | -3%
gsp antag | -12% | -1% | 6% | -6% | 2% | 5% | -4% | -8%
CtBP-E1A blk | 5 | -10 | -3 | 6 | 4 | -18 | 4 | -19
Sfp PPTase inh | 19% | -7% | / | -9% | 8% | 15%&30% | 7% | -99%
TRPV1 potentiator | 21 | 4 | 2 | 6 | 12 | 17 | 9 | -28

Looked up by compound from above, 3 records:
32) CCOc1ccc(OCC)c(NC(=O)C2CCN(S(=O)(=O)c3c(C)noc3C)CC2)c1
27) CC1=C/C(=C\C=C(C#N)C#N)N(C)c2ccccc21
30) CCc1c(C)c2c(C)nn(-c3ccccc3)c2[nH]c1=O

Screen / compound no. | 32 | 27 | 30
Menin MLL FP FL | 0.8 | ? | 2.5
ClpP mod | -2.4% | / | ?
gsp ag | 3% | 18% | 23%
gsp antag | 2% | -16% | 13%
CtBP-E1A blk | -9 | -10 | -12
Sfp PPTase inh | -1% | -7% | 4%
TRPV1 potentiator | 5 | 0 | 3

Source: PubChem BioAssay (National Center for Advancing Translational Sciences (NCATS))
